High-throughput results: PubChem BioAssay, several laboratories
Env fusion inh: inhibitors of HIV-1 Env-driven cell-cell fusion, primary screen, HeLa-JRFL effector, CEM21 target cells, luciferase; 1.1% of 360,000 active; inhibition, % at 12.3 µM;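 active = mean replicate inhibition score of at least 50 and every replicate individually at or above 50; inconclusive = only one of the two criteria met; inactive = mean below 50 and not all replicates reaching 50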;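 note: 0% = plate neutral controls and 100% = maraviroc near 300 nM; one replicate is shown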
eIF4H inh: human eIF4H binding inhibitors, primary screen, translation initiation inhibitor project, biochemical, uHTS, fluorescence polarization; eIF4H fluorescence polarization binding assay; inhibition, % at 35 µM; 0.94% of 290,000 active; AID 2012, 2009;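 active = 50% or more with normal probe brightness, or confirmed in later tests; inconclusive = above 50% with abnormal brightness, or retests that disagree; inactive = below 50% or failed in later tests; about a fifth of its hits are not listed in these tables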;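 note: calls also rest on retests at 20 µM and on dose response follow-up; 0% = protein and probe with vehicle and 100% = probe without protein; strong numbers were not always called active; many hits fall short of the cut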
MT1-MMP act inh: blockers of MT1-MMP proenzyme processing, primary screen, HT1080 RFP-PRO-GFP cells, GFP/RFP fluorescence | Matrix metalloproteinase-14 (Homo sapiens), P50281 | GFP/RFP ratio fluorescence, overnight; percent of plate control window, DMSO zero | GFP/RFP ratio change, % at 20 µM | 0.061% of 360,000 active | AID 651647, 2012;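 active = GFP/RFP ratio change of at least 30% with cell ATP level not reduced by more than half and red fluorescence within 50% of control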; note: strong numbers were not always called active
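Assay system: HT1080 cells carrying an RFP-PRO-GFP reporter | Dosing: Single dose of 20 µM compound, 1% DMSO final | Incubation: Cells overnight before dosing, compound overnight, 37 °C, 5% CO2 | Evaluation: GFP/RFP fluorescence ratio | Control set: DMSO and RFP-L50D-GFP cell wells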
PABP FP inh: PABP poly(A) RNA binding inhibitors, primary screen, biochemical, fluorescence polarization, uHTS. Polyadenylate-binding protein 1 (Homo sapiens), P11940. inhibition, % at 35 µM. 1% of 290,000 active. AID 2014, 2009;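 active = 50% or more with normal probe brightness, or confirmed in later tests; inconclusive = above 50% with abnormal brightness, or retests that disagree; inactive = below 50% or failed in later tests; about a fifth of its hits are not listed in these tables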;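 note: calls also rest on retests at 20 µM and on dose response follow-up; controls were probe without protein and protein plus probe with vehicle; some compounds called inactive have numbers as strong as hits; many hits fall short of the cut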
Yeast UUG start: modulators of yeast start codon fidelity, primary screen, whole organism, S. cerevisiae, single point, plate reader | activity score, % at 18.7 µM | 0.13% of 350,000 active | AID 602363, 2012 | S. cerevisiae UUG-firefly luciferase reporter, luminescence/redox ratio;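 active = replicate mean at a twofold rise or more, about +100% in these data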;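 note: firefly luciferase made from a UUG start codon reports start codon fidelity; reporter light over untreated wells divided by growth signal over untreated wells; some hits fall short of that in this replicate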
CSC inhib: cancer stem cell viability inhibitors, primary screen, luminescence. AID 2717, 2010. 1.1% of 300,000 active. cancer stem cell-like cells viability. inhibition, % at 7.5 µM;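 active = mean at 75% or more and at least half the replicates too; inconclusive = mean and replicates disagree; tested in HMLE shEcad cells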;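 note: 0% = median of negative and 100% = median of positive control wells; the first replicate is given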
Rce1 inhib: yeast Rce1p protease inhibitors, primary screen, biochemical, fluorescence, cell-free homogeneous; calls only; 0.27% of 290,000 active; yeast membranes, quenched prenylated peptide cleavage fluorescence;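 active = fall in fluorescence gain of 50% or more versus controls, with final raw signal at or below 3038400; inconclusive = same 50% fall but final raw signal above 3038400; inactive = fall in fluorescence gain under 50%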;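 note: plate controls were neutral control wells for no effect and wells lacking membranes for full effect; tested at 10 µM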
Target sequence (Q03530 whole entry, looked up): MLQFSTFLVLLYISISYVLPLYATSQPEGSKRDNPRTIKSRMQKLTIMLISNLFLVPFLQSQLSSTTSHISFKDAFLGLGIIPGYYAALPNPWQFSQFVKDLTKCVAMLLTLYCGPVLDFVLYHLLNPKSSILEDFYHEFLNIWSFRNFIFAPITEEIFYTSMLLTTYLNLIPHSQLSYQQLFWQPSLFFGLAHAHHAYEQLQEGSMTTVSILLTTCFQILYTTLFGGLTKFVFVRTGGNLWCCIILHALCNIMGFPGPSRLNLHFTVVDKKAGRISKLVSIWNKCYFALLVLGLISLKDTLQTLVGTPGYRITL
MT1-MMP act inh RFP: also measured in MT1-MMP act inh; calls as there; RFP signal change, %; measured here: RFP expression control read;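 0 = vehicle wells; hits needed this value within 50% of zero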
An asterisk follows results filed as active. Hits appear at their usual frequency (roughly 3% active in at least one column).

For CCOC(=O)c1ccc2c(c1)nc(SC/C(O)=C(\C#N)c1nc3ccccc3[nH]1)n2CC the results were Env fusion inh 28, eIF4H inh 19, MT1-MMP act inh -5, PABP FP inh 20, Yeast UUG start -20, CSC inhib 9, Rce1 inhib inactive and MT1-MMP act inh RFP 2.
`Cc1onc(-c2ccccc2)c1C(=O)Nc1cccnc1` gave eIF4H inh 7, MT1-MMP act inh -3, PABP FP inh -5, Yeast UUG start -19, Rce1 inhib inactive and MT1-MMP act inh RFP -2.
`Cc1ccc(C)n1-c1nn(S(=O)(=O)c2cccc3cccnc23)c2cccc(F)c12` gave Env fusion inh 8, eIF4H inh 7, MT1-MMP act inh -1, PABP FP inh -8, Yeast UUG start -20, CSC inhib 31, Rce1 inhib inactive and MT1-MMP act inh RFP 2.
`Cc1cc2nc(-c3ccc(SCC(=O)Nc4ccc5c(c4)OCCO5)nc3)[nH]c2cc1C` gave eIF4H inh -1, MT1-MMP act inh 2, PABP FP inh -14, Yeast UUG start -20, CSC inhib 17, Rce1 inhib inactive and MT1-MMP act inh RFP -5.
`COc1ccc(CCNC(=O)CCCCC(=O)NCCc2ccc(OC)c(OC)c2)cc1OC` gave Env fusion inh 0, MT1-MMP act inh 3, CSC inhib -2 and MT1-MMP act inh RFP 4.
Screening CC(C)CCN1CCC(n2nccc2NC(=O)c2ccc3c(c2)OCO3)CC1 returned Env fusion inh -51, eIF4H inh 8, MT1-MMP act inh 5, PABP FP inh 8, Yeast UUG start -5, CSC inhib 4, Rce1 inhib inactive and MT1-MMP act inh RFP 4.
For COc1ccc(OC)c(NC(=O)C2C(C(=O)O)C3(Cl)C(Cl)=C(Cl)C2(Cl)C3(Cl)Cl)c1 (stereo unspecified) the results were Env fusion inh 7, eIF4H inh 11, MT1-MMP act inh -4, PABP FP inh 11, CSC inhib 8, Rce1 inhib inactive and MT1-MMP act inh RFP 2.
CCc1ccc(NC(=O)COC(=O)CC2CCCC2)cc1 was read as Env fusion inh -17, MT1-MMP act inh -1, CSC inhib -19 and MT1-MMP act inh RFP 2.
CCN(CC)CCNC(=O)c1ccc(NC(=O)C2CCN(c3ncnc4sc(C)c(C)c34)CC2)cc1 was read as Env fusion inh 35, eIF4H inh -4, MT1-MMP act inh -6, PABP FP inh 14, Yeast UUG start -4, CSC inhib 11, Rce1 inhib inactive and MT1-MMP act inh RFP -9.
Cc1cc(C)n(CC2CC(=O)N(c3ccc(Cl)c(Cl)c3)C2=O)n1 (stereo unspecified) was read as Env fusion inh -52, eIF4H inh 2, MT1-MMP act inh 2, PABP FP inh -5, Yeast UUG start -8, CSC inhib -8, Rce1 inhib inactive and MT1-MMP act inh RFP 6.
Cc1ccccc1NC(=O)/C(=C/c1ccccc1)c1ccccc1 was read as eIF4H inh -8, MT1-MMP act inh -3, PABP FP inh -1, Yeast UUG start 102*, CSC inhib -12, Rce1 inhib inactive and MT1-MMP act inh RFP 0.
CCc1nnc(NC(=O)CSc2nnc(-c3ccc(S(=O)(=O)N4CCCC4)cc3)n2CC)s1 was read as Env fusion inh -66, eIF4H inh 2, MT1-MMP act inh -2, PABP FP inh -3, Yeast UUG start -11, CSC inhib -8, Rce1 inhib inactive and MT1-MMP act inh RFP 1.
Screening O=S(=O)(c1ccc(NC(=S)NCc2ccco2)cc1)N1CCCC1 returned Env fusion inh 18, eIF4H inh 4, MT1-MMP act inh 2, PABP FP inh 16, Rce1 inhib inactive and MT1-MMP act inh RFP 7.
For Cc1csc(=O)n1CCC(=O)OCC(=O)NNC(=O)c1ccccc1 the results were Env fusion inh 11, MT1-MMP act inh 1, CSC inhib -16, Rce1 inhib inactive and MT1-MMP act inh RFP 2.
Screening COC(=O)Nc1ccc(S(=O)(=O)NCCO)cc1 returned Env fusion inh 28, eIF4H inh -15, MT1-MMP act inh 0, PABP FP inh -2, Yeast UUG start -23, CSC inhib -10, Rce1 inhib inactive and MT1-MMP act inh RFP 1.
COCCNc1nc(Nc2ccc(Cl)cc2F)c2sccc2n1 was read as Env fusion inh 5, MT1-MMP act inh -6, Yeast UUG start 3 and MT1-MMP act inh RFP -14.
`Cc1cc2nc(CSc3ccc(Cl)cc3)cc(=O)n2[nH]1` gave Env fusion inh 0, eIF4H inh 6, MT1-MMP act inh 1, PABP FP inh -11, CSC inhib 9, Rce1 inhib inactive and MT1-MMP act inh RFP 4.
Screening C/C(=N\NC(=O)c1cc(-c2ccc(O)cc2)nc2ccccc12)c1cccnc1 returned Env fusion inh -129, eIF4H inh -3, MT1-MMP act inh 1, PABP FP inh -2, Yeast UUG start -8, CSC inhib -2, Rce1 inhib inactive and MT1-MMP act inh RFP 5.
Screening Cc1cc(OCCOCCNCc2ccccc2)ccc1C(C)C returned Env fusion inh 93*, eIF4H inh 1, MT1-MMP act inh 1, PABP FP inh 11, Yeast UUG start -6, Rce1 inhib inactive and MT1-MMP act inh RFP -1.
For Cc1cccc(C)c1NC(=O)COC(=O)c1cc(-c2cccnc2)nc2ccccc12 the results were Env fusion inh 12, eIF4H inh 12, MT1-MMP act inh -6, PABP FP inh 10, Yeast UUG start -19, CSC inhib -3, Rce1 inhib inactive and MT1-MMP act inh RFP 5.
`O=C(NC(=S)NNC(=O)c1ccccc1[N+](=O)[O-])c1ccc(Br)cc1` gave Env fusion inh 1, eIF4H inh 6, MT1-MMP act inh 0, PABP FP inh 6, Yeast UUG start -19, CSC inhib 8, Rce1 inhib inactive and MT1-MMP act inh RFP 3.
Screening Cc1ccc(S(=O)(=O)NN=C2C3CC4CC(C3)CC2C4)cc1[N+](=O)[O-] returned eIF4H inh -3, MT1-MMP act inh 4, PABP FP inh 24, CSC inhib -18, Rce1 inhib inactive and MT1-MMP act inh RFP -2.
Screening O=C(N/N=C/c1sc(N2CCOCC2)nc1-c1ccccc1)c1cccc(S(=O)(=O)N2CCCC2)c1 returned Env fusion inh 56*, eIF4H inh inconclusive, MT1-MMP act inh -29, PABP FP inh -8, CSC inhib 26, Rce1 inhib inactive and MT1-MMP act inh RFP -23.
For O=C(COC(=O)COc1ccc(Br)cc1)NC1CCCC1 the results were Env fusion inh -11, MT1-MMP act inh 5, Yeast UUG start -7, CSC inhib -1 and MT1-MMP act inh RFP 6.
CC1N=C(N)C(c2nc3ccccc3n2C)=C1O (stereo unspecified) was read as Env fusion inh -1, eIF4H inh 8, MT1-MMP act inh 1, PABP FP inh 37, CSC inhib 10, Rce1 inhib inactive and MT1-MMP act inh RFP 2.
`Cc1ccc(CNC(=O)CSc2ncc(C(=O)Nc3ccccc3)c(=O)n2C)cc1` gave Env fusion inh -3, MT1-MMP act inh 0, CSC inhib -6, Rce1 inhib inactive and MT1-MMP act inh RFP 2.
`COc1ccccc1CNC(=O)CN1C(=O)NC2(CCOc3ccccc32)C1=O` (stereo unspecified) gave Env fusion inh -14, MT1-MMP act inh 3, Yeast UUG start -6, CSC inhib 5 and MT1-MMP act inh RFP 5.
Cc1cccc(N2CCN(C(=O)CCNS(=O)(=O)c3ccc4c(c3)oc(=O)n4C)CC2)c1C was read as Env fusion inh 29, eIF4H inh 5, MT1-MMP act inh -4, PABP FP inh -10, Yeast UUG start 10, CSC inhib -12, Rce1 inhib inactive and MT1-MMP act inh RFP -5.
Screening COc1ccc(-c2nc(Cn3c(SCc4ccccc4F)nc4ccncc43)c(C)o2)cc1 returned Env fusion inh -1, eIF4H inh 2, MT1-MMP act inh 5, PABP FP inh -8, Yeast UUG start -13, CSC inhib 5, Rce1 inhib inactive and MT1-MMP act inh RFP -10.
For CCc1ccc(-c2nc(CSCC(=O)NCc3ccco3)c(C)o2)cc1 the results were Env fusion inh 9, eIF4H inh -8, MT1-MMP act inh -4, PABP FP inh 2, Rce1 inhib inactive and MT1-MMP act inh RFP -5.
Screening Cc1ccc(C(=O)N/N=C\c2ccncc2)s1 returned Env fusion inh 4, eIF4H inh 2, MT1-MMP act inh 1, PABP FP inh 7, Yeast UUG start -2, CSC inhib 5, Rce1 inhib inactive and MT1-MMP act inh RFP 2.
For S=C1NCCOCCOCCOCCN1 the results were eIF4H inh -4, MT1-MMP act inh 3, PABP FP inh -10, Yeast UUG start -18, Rce1 inhib inactive and MT1-MMP act inh RFP 7.
Screening CC(=O)N1CCc2c(sc(NC(=O)CN3C(=O)CCC3=O)c2C(N)=O)C1 returned Env fusion inh -16, eIF4H inh -1, MT1-MMP act inh -1, PABP FP inh 17, Yeast UUG start -24, CSC inhib -7, Rce1 inhib inactive and MT1-MMP act inh RFP 0.
For CC1(c2nnc(-c3ccc(Cl)cc3)o2)CC(c2ccc([N+](=O)[O-])cc2)=NO1 (stereo unspecified) the results were Env fusion inh -17, eIF4H inh -13, MT1-MMP act inh 2, PABP FP inh 8, Yeast UUG start -6, CSC inhib -3, Rce1 inhib inactive and MT1-MMP act inh RFP 3.
`O=C(COc1ccccc1Cc1ccccc1)Nc1cccnc1` gave Env fusion inh 7, MT1-MMP act inh 3, Yeast UUG start -8, CSC inhib -6 and MT1-MMP act inh RFP -8.
For CC(C)c1ccc(OCC(=O)N2CCN(C(=O)c3ccco3)CC2)cc1 the results were Env fusion inh 15, eIF4H inh 1, MT1-MMP act inh -1, PABP FP inh -15, Yeast UUG start 8, CSC inhib -17, Rce1 inhib inactive and MT1-MMP act inh RFP 0.
For COc1ccc(OCC(=O)NNC(=O)c2ccc(-c3ccccc3)cc2)cc1 the results were Env fusion inh -19, eIF4H inh 8, MT1-MMP act inh -1, PABP FP inh -5, Yeast UUG start -22, CSC inhib 12, Rce1 inhib inactive and MT1-MMP act inh RFP -1.
`CN(C)S(=O)(=O)c1cccc(COC(=O)CCNC(=O)c2ccc([N+](=O)[O-])cc2)c1` gave Env fusion inh 25, MT1-MMP act inh 2, Yeast UUG start -9 and MT1-MMP act inh RFP 1.
Screening O=C(NCC1CCN(C(=O)c2ccc([N+](=O)[O-])cc2)CC1)c1ccc([N+](=O)[O-])cc1 returned Env fusion inh -9, eIF4H inh 4, MT1-MMP act inh -1, PABP FP inh -1, Yeast UUG start 10, CSC inhib 27, Rce1 inhib inactive and MT1-MMP act inh RFP -7.
O=S1(=O)NC(=NCCOCCO)c2ccccc21 was read as Env fusion inh -8, eIF4H inh -5, MT1-MMP act inh -1, PABP FP inh -5, Yeast UUG start -10, CSC inhib 3, Rce1 inhib inactive and MT1-MMP act inh RFP 5.
`CC(C)(C)OC(=O)CC12CCCCC1NC(=O)O2` (stereo unspecified) gave Env fusion inh -6, eIF4H inh -10, MT1-MMP act inh -2, PABP FP inh 4, Yeast UUG start -13, CSC inhib -26, Rce1 inhib inactive and MT1-MMP act inh RFP -1.
COc1cc(C(=O)NCC(c2cccs2)N2CCOCC2)c([N+](=O)[O-])cc1OC (stereo unspecified) was read as MT1-MMP act inh -2, Yeast UUG start -14, CSC inhib 21, Rce1 inhib inactive and MT1-MMP act inh RFP -1.
